High-throughput results (PubChem)
HPGD block: qHTS Assay for Inhibitors of HPGD (15-Hydroxyprostaglandin Dehydrogenase); 15-hydroxyprostaglandin dehydrogenase [NAD(+)] (Homo sapiens), P15428; purified HPGD, NADH fluorescence kinetic, PGE2 substrate; Potency, µM, without a hit: at the highest dose activity change, negative = inhibition, actives largely listed as inhibitors; actives 4.3% (n = 150,000); active = well fitted inhibition curve with a large enough effect (not every such curve was filed as active); inconclusive = small, poorly fitted or top-dose-only effect, or another doubt; inactive = no such curve, though single readings can be large or run the other way;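 note: top concentration of the series not given in the record; plate controls included wells without enzyme; inactives centre near -10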
Target sequence (P15428 whole entry, looked up): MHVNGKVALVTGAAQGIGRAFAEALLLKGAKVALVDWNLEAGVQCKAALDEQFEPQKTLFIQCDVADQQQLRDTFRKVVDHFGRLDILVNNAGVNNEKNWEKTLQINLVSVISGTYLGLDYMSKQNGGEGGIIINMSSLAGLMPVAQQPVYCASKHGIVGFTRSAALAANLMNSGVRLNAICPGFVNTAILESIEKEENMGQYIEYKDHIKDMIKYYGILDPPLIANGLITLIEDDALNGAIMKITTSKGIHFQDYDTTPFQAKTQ
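NADH formation kinetics: reaction with 30 uM PGE2 and 1 mM NAD+ (final), 20 nM enzyme, Tris-HCl pH 8 with Tween 20, after 15 min compound preincubation at room temperature. Fluorescence change, last versus first of five reads.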
* hit, by the source's call; ? = inconclusive. % is set by controls: 0 for no effect and ±100 for the full control effect; potency is the fitted concentration of half-maximal effect. These rows are one share of the data; count on the stated rates, not on these rows.

CCCCC1=CC2=CC(=O)C(C)(O)C(=O)C2=CO1 (configuration not stated)
  HPGD block: -6%
O=C1c2ccccc2CC1Sc1nnc(-c2ccncc2)o1 (configuration not stated)
  HPGD block: ?
CN(Cc1nc2ccccc2c(=O)[nH]1)C(=O)c1ccc(S(=O)(=O)N(C)C)cc1
  HPGD block: -10%
COCCOC(=O)C1=C(C)NC(=O)CC1c1cc2c(cc1Br)OCO2 (configuration not stated)
  HPGD block: -8%
Cc1cc(C(=O)N2CCN(c3cccc(Cl)c3)CC2)c(C)o1
  HPGD block: -3%
Cc1ccc(-c2cnc(NC(=O)c3cccc(Br)c3)s2)c(C)c1
  HPGD block: ?
Cc1cc(NCc2ccccn2)ccc1Br
  HPGD block: -6%
Cc1[nH]n(-c2ccccc2)c(=O)c1C1(C(F)(F)F)C(=O)N(c2ccc(F)cc2)C2=C1C(=O)CC(C)(C)C2 (configuration not stated)
  HPGD block: -14%
Clc1ccc(-c2nc3nc4ccccc4nc3n2Cc2ccco2)cc1
  HPGD block: ?
Cc1nnc(NC(=O)CSc2nnc(Cc3ccccc3)n2Cc2ccccc2)s1
  HPGD block: -3%
CCCn1nnc(NC(=O)c2cccc(Cl)c2)n1
  HPGD block: -24%
CCNC(=S)N(Cc1cc2cccc(C)c2[nH]c1=O)C1CCCC1
  HPGD block: -23%
O=C(OCc1cn(-c2ccc(Cl)c(Cl)c2)nn1)c1ccccc1Cl
  HPGD block: -19%
CCOc1ccc(C(=O)CSc2nnc(C3CC3)n2C)cc1
  HPGD block: -25%
CC(Sc1nnc(Cc2ccc([N+](=O)[O-])cc2)o1)C(N)=O (configuration not stated)
  HPGD block: -7%
Cc1ccc2oc(-c3cccc(NC(=O)Cc4cccs4)c3)nc2c1
  HPGD block: -7%
O=C(/C=C/c1ccco1)NC(=S)Nc1nc(-c2ccc3ccccc3c2)cs1
  HPGD block: -14%
CCc1cc(C(=O)OC)c(NC(=O)C2CC(=O)NN2Cc2ccccc2)s1 (configuration not stated)
  HPGD block: -11%

Seven compounds from above, sorted by the number in HPGD block, high to low:
Cc1cc(NCc2ccccn2)ccc1Br
  HPGD block: -6%
CC(Sc1nnc(Cc2ccc([N+](=O)[O-])cc2)o1)C(N)=O (configuration not stated)
  HPGD block: -7%
COCCOC(=O)C1=C(C)NC(=O)CC1c1cc2c(cc1Br)OCO2 (configuration not stated)
  HPGD block: -8%
CCc1cc(C(=O)OC)c(NC(=O)C2CC(=O)NN2Cc2ccccc2)s1 (configuration not stated)
  HPGD block: -11%
O=C(/C=C/c1ccco1)NC(=S)Nc1nc(-c2ccc3ccccc3c2)cs1
  HPGD block: -14%
CCCn1nnc(NC(=O)c2cccc(Cl)c2)n1
  HPGD block: -24%
CCOc1ccc(C(=O)CSc2nnc(C3CC3)n2C)cc1
  HPGD block: -25%
